High-throughput results deposited in PubChem by Johns Hopkins Ion Channel Center.
KCNQ2 block: KCNQ2 channel blockers in CHO-K1 cells – cell-based, FluxOR thallium flux, B-score, primary screen (AID 2156); B-score at 10 µM; O88943; 20 min; stronger effect = lower value; only compounds with negative scores are shown here; some inactives read as strong as hits; 310,000 compounds, 1.1% hits;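 active means fluorescence ratio B-score at most minus 3 library SDs, with starting brightness B-score within 2 library SDs, cut at about -5.5 in these data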
Target sequence (O88943 whole entry, looked up): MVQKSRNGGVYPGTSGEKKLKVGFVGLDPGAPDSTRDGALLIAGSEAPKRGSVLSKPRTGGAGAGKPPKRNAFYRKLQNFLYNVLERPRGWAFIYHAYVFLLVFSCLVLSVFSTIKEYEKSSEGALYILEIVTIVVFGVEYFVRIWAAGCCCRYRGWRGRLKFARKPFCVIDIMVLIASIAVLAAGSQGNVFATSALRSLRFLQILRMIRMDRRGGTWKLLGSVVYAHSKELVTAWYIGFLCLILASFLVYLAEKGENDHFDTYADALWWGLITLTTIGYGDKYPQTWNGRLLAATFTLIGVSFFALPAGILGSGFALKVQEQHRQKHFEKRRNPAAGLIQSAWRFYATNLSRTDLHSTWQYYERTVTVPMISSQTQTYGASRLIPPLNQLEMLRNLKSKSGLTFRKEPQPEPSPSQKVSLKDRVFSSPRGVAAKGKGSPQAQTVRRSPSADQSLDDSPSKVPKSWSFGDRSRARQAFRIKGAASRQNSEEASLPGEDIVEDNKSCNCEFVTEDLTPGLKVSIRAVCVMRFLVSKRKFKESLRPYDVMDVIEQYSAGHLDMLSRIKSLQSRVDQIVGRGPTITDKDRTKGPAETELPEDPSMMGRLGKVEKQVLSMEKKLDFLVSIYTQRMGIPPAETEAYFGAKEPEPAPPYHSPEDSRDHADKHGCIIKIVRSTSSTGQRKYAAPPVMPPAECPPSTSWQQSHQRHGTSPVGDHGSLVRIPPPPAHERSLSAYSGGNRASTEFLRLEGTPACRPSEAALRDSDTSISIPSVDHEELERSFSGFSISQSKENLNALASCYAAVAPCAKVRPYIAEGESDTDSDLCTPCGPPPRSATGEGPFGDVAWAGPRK
KCNQ2 block baseline: second read-out of KCNQ2 block, no call of its own (marks repeat the call); B-score; measured here: initial fluorescence intensity artifact check;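 brightness before thallium and not channel activity; 0 = typical well and far values either way flag optical interference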
Active calls of the source: *; i = inactive; & = joins results of further samples.

canonical_smiles | KCNQ2 block | KCNQ2 block baseline
COc1ccc(-n2c(SCC(=O)Nc3ccccc3OC)nc(O)cc2=O)cc1 | i | -2
Cn1c2c(c(=O)n(C)c1=O)C1c3cc(Cl)ccc3OCC1CO2 (configuration not stated) | i | 0.66
COc1ccc(-n2c(-c3ccccc3)nnc2-c2ccc(Cl)cc2)cc1 | i | -0.92
COc1ccc2ccccc2c1CN1CCN(C)CC1 | i | 0.78
CCCCc1cc(=O)oc2c3c(cc(OCC(=O)NCCCO)c12)OC(C)(C)CC3 | i | -0.49
CSCCC(NS(=O)(=O)c1ccc2ccccc2c1)C(=O)OCC(=O)c1ccc(C(C)C)cc1 (configuration not stated) | i | -0.13
CCSc1nnc(NC(=O)COc2ccc3ccccc3c2)s1 | i | 0.92
COc1ccc(S(=O)(=O)N2CCOCC2)cc1NC(=O)CN1CCC(Cc2ccccc2)CC1 | i | 1.1
O=C(Nc1ccc2c(c1)CCCN2C(=O)c1ccccc1)c1ccccc1 | i | 0.68
Cc1ccccc1CCN(C(=O)Cn1nnc2ccccc21)C(C(=O)NC(C)(C)C)c1ccsc1 (configuration not stated) | i | 2.4
CN(CCc1ccccc1)c1ccc([N+](=O)[O-])cn1 | i | -1.3
COc1ccc(-n2c(=S)[nH]c3cc(C(=O)NCc4ccc(F)cc4)ccc3c2=O)c(OC)c1 | i | 0.9
Cc1ccc(S(=O)(=O)N2CCCN(C)CC2)cc1 | i | 0.83
COc1ccc(/C=C(\NC(=O)c2ccccc2)C(=O)NCc2ccco2)cc1OC | i | 0.35
Cc1ccc(NC(=S)N(CCCN(C)C)Cc2cc3cc4c(cc3[nH]c2=O)OCO4)cc1 | i | -0.45
CCOC(=O)CSc1n[nH]c(NC(=O)c2ccc(F)cc2)n1 | i | -0.01
Cc1csc(NC(=O)CCC(=O)N(CC(=O)NC2CCCC2)c2ccccc2)n1 | i | -1.5
CC(C)(C)NC(=O)COC(=O)c1cc(Br)ccc1Cl | i | -0.91
N#Cc1ccc(NCC(=O)Nc2ccc3c(c2)OCCO3)cc1 | i | 0.05
Cc1ccc(NCc2nnc(SCc3ccc(C#N)cc3)n2Cc2ccco2)c(C)c1 | i | 0.44
Cc1cccc(N2C(=O)N3[C@H](c4ccc(F)cc4)[C@@H]4C(=O)N(C5CCCCC5)C(=O)[C@@H]4[C@]3(Cc3ccccc3)C2=O)c1 | i | 0.02
CSCCC(NC(=O)c1occc1C)C(=O)O (configuration not stated) | i | -0.89
COC(=O)C1(C)NC(c2cccc(C)c2)C2C(=O)N(c3ccc(F)cc3)C(=O)C21 (configuration not stated) | i | 0.84
Cc1cc(NS(=O)(=O)c2ccc(Nc3nc(-c4sc(NC(=O)c5ccccc5)nc4C)cs3)cc2)no1 | -13* | -2*
CCCCCCC1CC(=O)NC(=S)N1 (configuration not stated) | i | 1.4

Whole records from above.
COc1ccc(/C=C(\NC(=O)c2ccccc2)C(=O)NCc2ccco2)cc1OC across the screens: KCNQ2 block = i; KCNQ2 block baseline = 0.35
O=C(Nc1ccc2c(c1)CCCN2C(=O)c1ccccc1)c1ccccc1 across the screens: KCNQ2 block = i; KCNQ2 block baseline = 0.68

Continuation.
canonical_smiles | KCNQ2 block | KCNQ2 block baseline
c1ccc(CNc2nc(N3CCOCC3)nc(N3CCOCC3)n2)cc1 | i | 2.5
Cc1ccccc1-n1c(SCC(=O)NCC2CCCO2)nc2c([nH]c3ccccc32)c1=O (configuration not stated) | i | 0.12
COc1cc(/C(C)=N/NC(=O)c2cccc(S(=O)(=O)N3CCCC3)c2)cc(OC)c1OC | i | 2.7
CCCCC(CC)COC1(c2ccccc2)OC(=O)c2ccccc21 (configuration not stated) | -9.7* | 1.4*
CCCC1C(c2ccco2)NC(c2ccco2)CC1(C)O (configuration not stated) | i | 0.69
CCC(SC1=NCCS1)C(=O)Nc1nnc(-c2ccccc2OC)s1 (configuration not stated) | i | 1.2
CCOC(=O)c1c(N2CCCCC2)c2ccccc2[nH]c1=O | i | 2.4
CCN(CC)c1ccc(C=Nc2cc(C)ccc2C)c(O)c1 | i | 1
CCOc1cccc(=O)c2c(C)n(Cc3ccco3)c(C)c12 | i | 0.24
COCCNc1ccc([N+](=O)[O-])cc1C(=O)Nc1cccc(C)n1 | i | -0.26
Cc1ccc(NC(=O)CCC(=O)N/N=C/c2ccc([N+](=O)[O-])o2)cc1C | i | -0.72
CCC(CC)NC(=O)c1cccc(Br)c1 | i | 1.2
C#CCSc1nnc(-c2sc(-c3ccccc3)nc2C)n1C | i | 0.18
CC(C)OC(=O)Cn1nnc2c(cnn2-c2ccccc2)c1=O | i | 0.41
CCOc1ccccc1CNC(c1ccccc1)c1ccccc1 | i | 1
O=C(O)C1Cc2[nH]cnc2C(c2ccccc2O)N1 (configuration not stated) | i | 0.11
COc1ccc([N+](=O)[O-])c(OC)c1C(=O)NC(=O)Nc1nc(C)nc(C)n1 | i | 0.08
C=CCOc1ccc(/C=N/n2cncn2)cc1OC | i | 1.5
CN(C)c1ccc(P(=O)(OC2CCCCC2)C(O)c2ccccn2)cc1 (configuration not stated) | i | 0.3
O=C(Nc1ccc(C(=O)N2CCCc3ccccc32)cc1)c1cccs1 | i | -0.99
OCCCc1nc2ccccc2n1Cc1ccccc1 | i | -2.7
CCc1ccccc1N(C(=O)Cn1nnc2ccccc21)C(C(=O)NCCOC)c1ccco1 (configuration not stated) | i | 0.5
O=C(NCC1(N2CCCCC2)CCCCC1)C1CC(=O)N(c2ccc3c(c2)OCCO3)C1 (configuration not stated) | i | -0.14
COc1ccc(C(=O)Nc2nncs2)c(OC)c1 | i | 1.1
Cc1cc(NC(=O)COn2nnc3ccccc32)no1 | i | 0.2
Cc1cc(OCC(=O)NC(C)C)cc(C)c1Br | i | -0.47
COc1ccc2[nH]c(=O)c(CNc3cc(C)ccc3C)cc2c1 | i | 1
CC(=O)c1cccc(OCc2cc(C(=O)NCc3nc(C)c(C)s3)no2)c1 | i | 0.37
CCc1cc(C(=O)N2CCCC(CNC(=O)c3ccc(-c4ccccc4)cc3)C2)no1 (configuration not stated) | i | 4.8
Cc1ccc(NC(=O)/C=C\C(=O)NCC(=O)O)cc1 | i | -1.6
CCCc1[nH]n(-c2nc3ccccc3s2)c(=O)c1C=NCC1CCCO1 (configuration not stated) | i | -1.3
Cc1ccc(Cl)cc1NC(=O)COC(=O)C12CC3CC(CC(C3)C1)C2 | i | 1.8&0.39
CCCc1c(C(=O)N/N=C/C(C)=C/c2ccco2)nnn1-c1nonc1N | i | -0.64
Cc1cccc(-c2n[nH]c(=S)n2/N=C/C=C/c2ccco2)c1 | i | -0.03
O=C(O)C1CCCN1C(=O)Oc1ccccc1 (configuration not stated) | i | 2.5
O=C(Cn1cnc(S(=O)(=O)N2CCCC2)c1)Nc1ccccc1 | i | 0.28
O=C1c2ccccc2C(=O)N1CCCCSc1nnc2c(Cl)cc(Cl)cn12 | i | 0.9
CC(C)(C)C(=O)Nc1c2c(nc3c1CCC3)CCCC2 | i | -1.7
COc1ccccc1C(=O)Nc1ccc(Oc2ncnc3sc(-c4ccccc4)cc23)cc1 | i | 0.23
CCOCc1c(C(=O)OCC(=O)Nc2ccc(C)c(S(=O)(=O)N(C)C)c2)oc2ccccc12 | i | -0.05
CCOC(=O)c1cccc(NC(=O)CN2CCN(c3ccc(OC)cc3)CC2)c1 | i | 1.7
COc1ccccc1Cc1noc(-c2cc(Cl)ccc2OC)n1 | i | -0.24
O=c1n(S(=O)(=O)c2cccc3cccnc23)c2ccccc2n1S(=O)(=O)c1cccc2cccnc12 | i | 0.6
Cc1cc(NC(=O)CSC2=NS(=O)(=O)c3cc(Cl)ccc3N2)no1 | i | -0.48
Cc1ccc(C(=O)Nc2oc(-c3ccccc3)cc2C#N)cc1 | i | -2.9
COc1cc2nc(N3CCNCC3)nc(N)c2cc1OC | i | -1.2
CCC(=O)c1cn(CC(=O)O)c2ccccc12 | i | 0.06
COC(=O)c1ccc(OC)c(Cn2c(=O)n(C)c(=O)c3sccc32)c1 | i | 0.7
CSCCC(Nc1ccc(S(=O)(=O)N2CCOCC2)cc1[N+](=O)[O-])C(=O)OCC(=O)NCC(C)C (configuration not stated) | i | 0.04
COC(=O)c1cc(S(=O)(=O)NCc2cccs2)c[nH]1 | i | -0.19

Pulled by compound from above, five records:
canonical_smiles | KCNQ2 block | KCNQ2 block baseline
COc1ccc([N+](=O)[O-])c(OC)c1C(=O)NC(=O)Nc1nc(C)nc(C)n1 | i | 0.08
Cc1cccc(N2C(=O)N3[C@H](c4ccc(F)cc4)[C@@H]4C(=O)N(C5CCCCC5)C(=O)[C@@H]4[C@]3(Cc3ccccc3)C2=O)c1 | i | 0.02
Cc1ccc(S(=O)(=O)N2CCCN(C)CC2)cc1 | i | 0.83
CCOc1cccc(=O)c2c(C)n(Cc3ccco3)c(C)c12 | i | 0.24
Cn1c2c(c(=O)n(C)c1=O)C1c3cc(Cl)ccc3OCC1CO2 (configuration not stated) | i | 0.66

(list continues)
canonical_smiles | KCNQ2 block | KCNQ2 block baseline
CCOc1ccc(C2OC(=O)Cc3cc(OC)c(OC)cc32)cc1 (configuration not stated) | i | -1.3
Cc1ccc(S(=O)(=O)NC2=NCN(C3CCCCC3)CN2)cc1 | i | 0.02
Cc1cc(N2C(=O)C(=O)/C(=C(/O)c3ccc(F)cc3)C2c2ccc(F)cc2)no1 (configuration not stated) | i | -1.9
Cc1ccc2c(c1)C(C)CC(C)(C)N2C(=O)NC1CCCCC1 (configuration not stated) | i | -0.32
Cc1ccc(NC(=O)CN(C)C(=O)CSc2nc3ccccc3c(=O)n2Cc2ccco2)cc1 | i | -0.38
C/C(=N\NC(=O)C(N)=O)c1ccc(OC(F)F)cc1 | i | -1.4
CN(C)S(=O)(=O)c1cccc(C(=O)NC2CCCc3ccccc32)c1 (configuration not stated) | i | 0.95
COc1ccc(Cl)cc1NC(=O)CCN1C(=O)C2C3C=CC(C4CC34)C2C1=O (configuration not stated) | i | 0.24
CN(NS(=O)(=O)c1ccc(Br)cc1)c1nc(C(F)(F)F)nc2ccccc12 | i | 0.15
CCOC(=O)CC(=O)Nc1ccc(Br)cc1C(=O)O | i | 1.4
COCc1cc(Sc2ccc(Cl)cc2)nc(-c2ccccc2)n1 | -5.9* | 3*
CN(C)c1ccc(C(=O)N/N=C/c2cc(Br)cc(Br)c2O)cc1 | i | 1.1
COc1ccc(N2C(=O)C3CCCN3C2c2ccc(C)o2)cc1Cl (configuration not stated) | i | 2.9
CC(C)CNC(=O)CN(c1ccccc1)S(=O)(=O)c1ccccc1[N+](=O)[O-] | i | -0.08
CN(C)CCCNCCCCNC(=O)/C=N/O | i | 3.9
O=C1NC(NS(=O)(=O)c2ccc(Cl)cc2)(C(F)(F)F)C(=O)N1CCc1ccccc1 (configuration not stated) | i | 2.4
Cc1ccccc1-n1ncc2c1CC(C)(C)CC2NC(=O)CCC1=NNC(=O)CC1 (configuration not stated) | i | 0.67
CN(C)c1ccc(NS(=O)(=O)c2ccc(-c3csnn3)cc2)cc1 | i | -1.6
COc1ccc(OCCc2nnc(N)s2)cc1 | i | -1.1
COc1ccc(OCCN(C)Cc2c(O)ccc3ccccc23)cc1 | i | -0.32
Cc1cc(C)c(C)c(S(=O)(=O)N2CCN(C(=O)c3cc(=O)[nH]c4ccccc34)CC2)c1C | i | 0.76
O=C(NCc1ccccc1)c1cnc(-c2ccccn2)nc1C(F)(F)F | i | -1.8
COc1ccc(OC)c(CCNC(=O)CCn2nc(C)c3c(C)n(-c4ccccc4)nc3c2=O)c1 | i | 0.05
CN1/C(=C\P(=O)(N(C)C)N(C)C)C(C)(C)c2ccccc21 | i | -1.3
CC1(c2nnc(-c3cccc(Cl)c3)o2)CC(c2ccc(F)cc2)=NO1 (configuration not stated) | i | -0.03
CN(C)Cc1c(O)ccc2occ(C(O)c3ccccc3)c12 (configuration not stated) | i | 1
O=C(OCc1nnc(-c2ccccc2)o1)C12CC3CC(CC(Br)(C3)C1)C2 | i | -0.21
O/N=C1\CCCC\C1=C/c1ccccc1 | i | 0.5
Cc1cc(C(=O)NC2CCCN(Cc3ccccc3F)C2)no1 (configuration not stated) | i | -0.03
CC1(C)CC(=O)C2=C(C1)NC1=C(C(=O)c3ccccc31)C2c1ccccc1 (configuration not stated) | i | -0.06
COC(=O)C1=C(C)Nc2ncnn2C1c1ccc(OC(=O)c2ccccc2)cc1 (configuration not stated) | i | 0.4
O=C(C1CCCO1)N1CCN(C(=S)Nc2ccccc2Cl)CC1 (configuration not stated) | i | -0.5
COc1ccc(CNS(=O)(=O)c2ccc(F)c(C(=O)Nc3ccccc3OC)c2)cc1 | i | 2.1
Cc1nc2ncnn2c(C)c1CCC(=O)N1CCOCC1 | i | 1.1
C/C(Cl)=C/Cc1c(C)[nH]c2c(ccc3ccccc32)c1=O | i | -0.02
Nc1nnc(CSCc2ccccc2)s1 | i | -1.1
Cc1sc2nc(COC(=O)c3c(F)cccc3F)[nH]c(=O)c2c1C | i | 1.7
O=C1/C(=C/c2ccco2)CCC1C1CCCC1 (configuration not stated) | i | 1.5
C/C(=N/NC(=O)c1ccccn1)c1ccncc1 | i | 0.44
CCC(C)NC(=O)CN(c1ccc(OC)cc1)S(=O)(=O)c1ccccc1 (configuration not stated) | i | 0.12
Cc1nc2ccc(S(=O)(=O)N3CCCCC3)cc2s1 | i | -1.6

Structural class: the compounds so far with a tert-butyl group.
canonical_smiles | KCNQ2 block | KCNQ2 block baseline
Cc1ccccc1CCN(C(=O)Cn1nnc2ccccc21)C(C(=O)NC(C)(C)C)c1ccsc1 (configuration not stated) | i | 2.4
CC(C)(C)NC(=O)COC(=O)c1cc(Br)ccc1Cl | i | -0.91
CC(C)(C)C(=O)Nc1c2c(nc3c1CCC3)CCCC2 | i | -1.7

An excerpt. The share of hits here may be higher or lower than overall.
